Screening results from PubChem BioAssay.
Mtb H37Rv: M. tuberculosis H37Rv growth inhibitors, H37Rv strain (AID 1626); one-dose inhibition, % at 10 µM; IC50 in µM for titrated hits; M. tuberculosis H37Rv growth inhibition; higher % means a stronger effect; hit rate 0.95% among 220,000;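 active = confirmed in a dose series; inconclusive = inhibition above 80% but not taken into the dose series; inactive = below 80% or under 30% at every dose of the series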;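 also: bacteria incubated seven days before Alamar blue readout; 0% = bacteria only wells and 100% = bacteria with antibiotic wells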
YopH inh: YopH tyrosine phosphatase inhibitors, primary screen, biochemical, fluorescence Ex485/Em525; hit rate 0.16% among 140,000; inhibition, %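 (about 10 µM by stock and volumes)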; YopH tyrosine phosphatase [Yersinia enterocolitica];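 active = inhibition of 50% or more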;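 also: controls were vehicle for no effect and minimum signal wells for full effect; inactives centre near -20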
Mtb betalactam: beta-lactam sensitization of Mtb H37Rv, H37Rv. M. tuberculosis H37Rv growth with meropenem, percent inhibition; hits of this screen are not shown here. inhibition, % at 25 µM. hit rate 0.27% among 330,000;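 active = about 74% or more and at least 40 points above the plate without the antibiotic, then above 30% in a dose series; inconclusive = first-round hits that could not be retested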;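 also: growth measured after seven days incubation then overnight dye step; 0% = bacteria only wells and 100% = bacteria with antibiotic; twin plates without the antibiotic show which effects depend on it; some results filed as inactive read as strong as hits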
Arbovirus anti: antivirals against arbovirus infection, primary screen, cell-based, full library, 10K replicate subset; AID 1251, 2008; arbovirus infection cell-based antiviral screen; hit rate 0.37% among 200,000; inhibition, % at 10 µM;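 active = inhibition from about 30%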;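 also: bluetongue infection of BSR cells; cell survival read as ATP light after 72 h; 0% = infected wells without compound and 100% = uninfected wells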
RecA splice inh: Mtb RecA intein splicing inhibitors, primary screen, biochemical, fluorescence, HTS; Protein RecA (Mycobacterium tuberculosis (strain ATCC 25618 / H37Rv)), P9WHJ3; cell-free RecA intein splicing; inhibition, %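 (about 9 µM by stock and volumes)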; hit rate 0.75% among 290,000; AID 2221, 2009; in the data active = inhibition above about 30%; inconclusive = no clear call, values can overlap the other calls;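 also: 0% = vehicle wells and 100% = reference inhibitor control wells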
Target sequence (P9WHJ3 whole entry, looked up, canonical isoform): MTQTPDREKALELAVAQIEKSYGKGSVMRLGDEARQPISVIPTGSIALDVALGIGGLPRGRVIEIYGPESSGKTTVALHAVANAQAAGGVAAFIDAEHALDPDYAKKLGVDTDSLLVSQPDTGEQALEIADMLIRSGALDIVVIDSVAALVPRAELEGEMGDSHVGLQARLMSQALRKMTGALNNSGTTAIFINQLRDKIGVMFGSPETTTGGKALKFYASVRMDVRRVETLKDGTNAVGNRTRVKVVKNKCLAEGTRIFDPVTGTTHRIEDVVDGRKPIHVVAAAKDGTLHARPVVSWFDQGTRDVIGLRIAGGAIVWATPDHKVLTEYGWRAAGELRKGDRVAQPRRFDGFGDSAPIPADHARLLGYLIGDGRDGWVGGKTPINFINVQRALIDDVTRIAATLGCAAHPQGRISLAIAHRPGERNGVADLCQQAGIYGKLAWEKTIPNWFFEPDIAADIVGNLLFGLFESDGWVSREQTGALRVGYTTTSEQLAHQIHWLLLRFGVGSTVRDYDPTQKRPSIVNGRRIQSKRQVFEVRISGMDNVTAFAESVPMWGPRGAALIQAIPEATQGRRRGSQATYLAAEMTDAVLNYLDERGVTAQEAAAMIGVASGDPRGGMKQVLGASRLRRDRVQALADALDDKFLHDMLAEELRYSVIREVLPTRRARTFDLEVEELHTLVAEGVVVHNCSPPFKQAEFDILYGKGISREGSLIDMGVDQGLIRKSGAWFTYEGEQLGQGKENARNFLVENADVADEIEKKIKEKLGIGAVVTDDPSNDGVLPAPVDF
Arbovirus anti repeat: recorded beside Arbovirus anti, whose call it bears; inhibition, %; measured here: 10K subset replicate screen; many hits read low in the repeat;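 first of two repeat runs on a subset; 0% = infected and 100% = uninfected wells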
* = called active by the depositor; ? = inconclusive; . = not tested or not shown.

SMILES	Mtb H37Rv	YopH inh	Mtb betalactam	Arbovirus anti	RecA splice inh	others
CCCNC(=O)c1c(N)n(-c2ccc(S(N)(=O)=O)cc2)c2nc3ccccc3nc12	.	-25.8	7.5	-1.0	-14.1
Cn1nc(C(=O)NNC(=O)COc2ccccc2)c2ccccc2c1=O	-8.8%	-29.9	6.6	0.6	-0.6
CC(C)C(C)NC(=O)CN1C(=O)NC2(CCCCCC2)C1=O (stereo unspecified)	2.9%	.	8.7	7.8	-0.7
Cc1cc2nc(-c3ccc(SCc4ccccc4C#N)nc3)[nH]c2cc1C	1.5%	-28.3	5.9	-15.9	-0.2
CCOC(=O)c1c(-c2ccc(OC)cc2)oc2cc(Br)c(O)cc12	.	.	6.2	.	-2.1
Cc1nc(-c2cn[nH]c2)c2cc(C)oc2n1	-2.1%	-1.8	2.4	5.6	1.3
Cc1cccc(NS(=O)(=O)c2ccc(C(=O)NCCCN3CCOCC3)cc2)c1C	.	.	-9.1	.	2.6
Cc1ccc2nc(SCC(=O)N3CCCC3)nc(=O)n2c1	.	.	0.5	.	0.1
O=C(C1CC1)N1CCN=C1SCc1cccc(C(F)(F)F)c1	13.2%	-29.1	9.3	2.0	9.1
COc1ccc(CCNC(=O)CSc2ccc(-c3cccs3)nn2)cc1	3.5%	.	-18.5	2.5	-1.0
CC(=O)Oc1ccc(S(=O)(=O)c2ccc(OC(C)=O)cc2)cc1	-6.2%	.	3.8	4.7	3.6
Cc1cc(C)c(C)c(S(=O)(=O)NCC(=O)N2CCCC2)c1C	-6.0%	-0.5	1.6	9.5	.
Cc1sc(NC(=O)c2ccccc2)c(C(=O)c2ccccc2)c1C	6.1%	-8.8	68.9	-9.2	16.6
CCN(CC)S(=O)(=O)c1cc(NC(=O)CN2C(=O)NC3(CCCc4ccccc43)C2=O)ccc1C (stereo unspecified)	2.6%	-24.0	1.9	-4.0	2.7
O=C(CN1C(=O)S/C(=C\c2ccccc2F)C1=O)NC1CCS(=O)(=O)C1 (stereo unspecified)	.	.	3.7	.	7.5
CSc1ccccc1C(=O)NCCS(=O)(=O)N1CCN(c2ccc(F)cc2)CC1	.	.	-14.9	.	-1.0
CN1OCC(S(=O)(=O)c2ccccc2)C1c1ccccc1 (stereo unspecified)	-5.2%	.	-2.7	11.4	-2.1
COc1cc(-c2cc(C(=O)Nc3nc4ccccc4s3)c3ccccc3n2)cc(OC)c1OC	>100µM*	-28.0	-8.9	12.4	-0.8
Cc1ccccc1-c1nnn(CC(=O)N2CCN(C(=O)c3ccco3)CC2)n1	.	.	-14.5	.	1.4
Cc1c(C(=O)NCc2ccccc2F)oc2ccccc12	.	.	-6.7	.	3.8
COc1ccc(NC(=O)CCNS(=O)(=O)c2ccc3[nH]c(=O)oc3c2)cc1Cl	.	.	2.3	.	-2.5
Cc1cccn2c(=O)c(/C=C(\C#N)C(=O)NCc3ccco3)c(N3CCCC(C)C3)nc12 (stereo unspecified)	-7.7%	-9.7	0.7	-6.5	-1.3
CCCCn1c(N)c(N(CC(C)C)C(=O)C2CC(=O)N(Cc3ccco3)C2)c(=O)[nH]c1=O (stereo unspecified)	.	.	-6.2	.	-1.1
Cc1c(C(=O)NC(C)C)c(-c2ccccc2)nn1-c1ccccc1	4.9%	-2.0	0.4	-9.3	3.8
O=C(CNC(=O)c1cccs1)OCc1ccc(Br)cc1	.	.	-4.0	.	-0.3

Sorted by heavy-atom count (largest number first): 14 of the compounds above
SMILES	Mtb H37Rv	YopH inh	Mtb betalactam	Arbovirus anti	RecA splice inh	others
CCN(CC)S(=O)(=O)c1cc(NC(=O)CN2C(=O)NC3(CCCc4ccccc43)C2=O)ccc1C (stereo unspecified)	2.6%	-24.0	1.9	-4.0	2.7
COc1cc(-c2cc(C(=O)Nc3nc4ccccc4s3)c3ccccc3n2)cc(OC)c1OC	>100µM*	-28.0	-8.9	12.4	-0.8
CCCCn1c(N)c(N(CC(C)C)C(=O)C2CC(=O)N(Cc3ccco3)C2)c(=O)[nH]c1=O (stereo unspecified)	.	.	-6.2	.	-1.1
Cc1cccc(NS(=O)(=O)c2ccc(C(=O)NCCCN3CCOCC3)cc2)c1C	.	.	-9.1	.	2.6
CSc1ccccc1C(=O)NCCS(=O)(=O)N1CCN(c2ccc(F)cc2)CC1	.	.	-14.9	.	-1.0
Cc1ccccc1-c1nnn(CC(=O)N2CCN(C(=O)c3ccco3)CC2)n1	.	.	-14.5	.	1.4
Cc1cc2nc(-c3ccc(SCc4ccccc4C#N)nc3)[nH]c2cc1C	1.5%	-28.3	5.9	-15.9	-0.2
Cn1nc(C(=O)NNC(=O)COc2ccccc2)c2ccccc2c1=O	-8.8%	-29.9	6.6	0.6	-0.6
CCOC(=O)c1c(-c2ccc(OC)cc2)oc2cc(Br)c(O)cc12	.	.	6.2	.	-2.1
CC(=O)Oc1ccc(S(=O)(=O)c2ccc(OC(C)=O)cc2)cc1	-6.2%	.	3.8	4.7	3.6
Cc1cc(C)c(C)c(S(=O)(=O)NCC(=O)N2CCCC2)c1C	-6.0%	-0.5	1.6	9.5	.
CN1OCC(S(=O)(=O)c2ccccc2)C1c1ccccc1 (stereo unspecified)	-5.2%	.	-2.7	11.4	-2.1
O=C(CNC(=O)c1cccs1)OCc1ccc(Br)cc1	.	.	-4.0	.	-0.3
Cc1nc(-c2cn[nH]c2)c2cc(C)oc2n1	-2.1%	-1.8	2.4	5.6	1.3

Continuation.
SMILES	Mtb H37Rv	YopH inh	Mtb betalactam	Arbovirus anti	RecA splice inh	others
Nc1ccc2c(c1)C(=O)N(CCCC(=O)O)C2=O	-5.3%	-48.3	-13.9	5.5	-17.7
CCOc1cc(C)c(C(C)C)cc1S(=O)(=O)N1CCOCC1	-5.1%	-25.6	-1.9	0.9	0.4
O=C(NCc1ccccc1)C(c1ccc(F)cc1)N(C(=O)c1csnn1)c1ccccc1 (stereo unspecified)	.	.	3.1	.	1.0
COc1ccc(NC(=S)NNC(=O)c2nnn(-c3ccccc3)c2C)cc1	0.6%	-24.2	1.5	-3.2	-5.6
CN1CCN(CCCNC(=O)C2CCN(c3nnc(-n4cccc4)s3)CC2)CC1	.	0.1	-14.6	5.3	-0.8
Cc1ccccc1C(=O)Nc1ccnn1C1CCN(Cc2cnn(C(C)C)c2)CC1	.	.	?	.	3.0
CC1=C(C#N)C(=O)NC(=O)/C1=C/c1ccc(-c2ccc(S(N)(=O)=O)cc2)o1	0.8%	.	0.0	8.2	1.2
CCN(CC)CCCNC(=O)c1ccc2c(SCC(=O)O)c3c(nc2c1)CCC3	3.0%	-6.2	-2.1	2.1	3.3
CCc1noc(C)c1C(=O)Nc1ccc(S(=O)(=O)N2CCCC(C)C2)cc1 (stereo unspecified)	.	.	-2.4	.	2.7
CC12CCC(=O)N1C(C(=O)OCc1c(Cl)cccc1Cl)CS2 (stereo unspecified)	.	.	11.7	.	0.1
CC(=O)c1ccc2c(c1)C1C=CCC1C(c1ccncc1)N2 (stereo unspecified)	-10.9%	-15.8	43.2	5.8	29.2
CN(Cc1ccccc1)C(=O)c1nc2ccccn2c1CNCCn1cccn1	-2.6%	.	-0.7	0.7	2.0
Cc1cc(C=O)c(O)cc1O	.	.	3.9	.	-1.8
Cc1ccc(C(=O)Nc2ccc(C(=O)/C=C/c3cccs3)cc2)cc1	0.0%	-19.3	-0.8	-15.8	2.6
CCOC(=O)Cn1cc(/C=N/N2C(=O)C3C4C=CC(C4)C3C2=O)c2ccccc21 (stereo unspecified)	1.5%	.	-4.3	4.9	4.0
COC(=O)CSc1nc2ncc(Cl)cc2[nH]1	-3.2%	13.2	3.3	1.1	2.2
Cc1cccc(Nc2nnc(SCc3cc(=O)n4cc(C)ccc4n3)s2)c1	-1.8%	-7.2	-3.4	-10.4	0.1
Cc1ccc(NCN2C(=O)C3CC=C(Cl)CC3C2=O)cc1 (stereo unspecified)	-6.8%	1.5	7.5	8.4	.
CC(NC(=O)C(=O)N1CCCCC1)C(c1cccs1)N1CCN(c2ccc(F)cc2)CC1 (stereo unspecified)	.	.	0.6	.	2.1
CN(C)C(=O)c1cc(C(=O)c2ccc(F)cc2Cl)c[nH]1	.	.	-2.3	.	-1.2
CC(=O)C12C3C4C(C5C1C3C5(Br)C41OCCO1)C21OCCO1 (stereo unspecified)	2.2%	-14.4	-3.8	-5.6	-2.2
CC1(C)CC(=O)C2=C(C1)N1C(=C(C#N)C2c2ccccc2Cl)N=C(N)c2ccccc21 (stereo unspecified)	60.1%	-18.5	-2.4	-20.7	11.4
CC(C)c1nnc(NC(=O)CCC(=O)NCc2ccc(F)cc2)s1	.	.	-7.5	.	-1.2
O=C(Nc1ccc(-c2cc3ccccc3oc2=O)c(Cl)c1)c1cccnc1	-0.6%	-6.8	-7.7	8.8	0.5
N#Cc1c(N)nc2c(c1-c1ccccc1)CCC2	-7.6%	.	2.4	-2.4	.
SMILES	Mtb H37Rv	YopH inh	Mtb betalactam	Arbovirus anti	RecA splice inh	others
O=C(COC(=O)c1cccc2ccccc12)NCC1CCCO1 (stereo unspecified)	-2.9%	.	1.2	9.1	-1.6
O=C(O)C1C2C=CC(C2)C1C(=O)OC1CC2CCC1C2 (stereo unspecified)	-10.4%	-8.4	-3.7	-0.9	-1.0
CCc1ccc(N2CSC3=C(C#N)C(c4cccs4)CC(=O)N3C2)cc1 (stereo unspecified)	22.1%	-15.4	91.3	6.2	13.8
CCCC(C(=O)NC1CCCC1)N(Cc1ccc(OC)cc1)C(=O)c1snc(C(N)=O)c1N (stereo unspecified)	.	.	-1.4	.	3.4
CCOC(=O)c1cnc(COc2ccccc2Cl)[nH]c1=O	-6.2%	.	-4.5	.	-0.8
CCCC[C@@H]1CNC(=O)C(=O)N1CC(C)(C)C	3.2%	.	-0.6	.	-1.3
Cc1ccc([N+](=O)[O-])cc1NCC(=O)NN	-8.5%	.	0.8	1.9	0.1
COc1ccc(CCNC(=O)c2ccc3c(c2)NC(=O)C(C(C)C)N3)cc1OC (stereo unspecified)	.	.	-5.5	.	1.6
CC(=O)NC(CCS(C)(=O)=O)C(=O)Nc1ccc(C)c(F)c1 (stereo unspecified)	-10.3%	-46.0	-18.0	6.7	-2.9
N/N=C/C(=N\Nc1ccc(Cl)cc1)C(=O)c1ccncc1	.	.	46.8	.	2.9
Oc1ccc(CCc2n[nH]c(=S)n2-c2ccc(F)cc2)cc1	-3.8%	.	-14.3	.	0.0
COc1ccccc1CNC(=O)CN1CCN(Cc2ccc(Cl)cc2)C1=O	1.1%	-51.6	4.5	2.1	2.3	Arbovirus anti repeat=1.6
COC(=O)c1ccc(NS(=O)(=O)c2cccc3cccnc23)cc1	-3.1%	-38.6	12.9	-2.7	-2.5
COc1cc(C2C(C#N)=C(N)Oc3n[nH]c(-c4cccnc4)c32)cc(Br)c1O (stereo unspecified)	-2.6%	.	6.5	11.6	81.0*
CC[C@H](C)[C@H](NC(=O)CNC(=O)COc1cc2c(c3oc(=O)cc(C)c13)CCC(C)(C)O2)C(=O)O	.	.	3.1	.	-0.4
COc1ccc(/C=N/NC(=O)Cn2ccnc2C)cc1OC	-6.1%	.	-0.8	.	4.0
Clc1ccc(-c2nnc3n2CCCCS3)cc1	0.3%	-20.5	-2.7	11.3	-1.9
CCOc1cccc2cc(C(C)=O)oc12	-0.1%	.	2.8	0.0	0.6
CC(=O)NCCn1c(SCC#N)nc2ccccc2c1=O	-3.4%	-36.0	5.8	2.2	-4.7
CS(=O)(=O)N1CCN(C(=O)c2ccccc2F)CC1	-6.9%	35.3	-5.0	-1.1	.
O=C(Cn1nc(-c2ccccc2)c2ccccc2c1=O)Nc1cccnc1	1.0%	-19.3	?	-1.3	-2.2
COc1cccc(Nc2c([N+](=O)[O-])cncc2[N+](=O)[O-])c1	.	.	89.9	.	54.0*
Cc1ccc(OC(=O)c2cccc(S(=O)(=O)N3CCCC3)c2)c(-n2nc3ccccc3n2)c1	-2.4%	-9.6	?	-4.9	6.8
CN(C)CCOc1ccc(Cl)cc1C(C)(C)C	-1.3%	.	13.4	5.3	-1.7

This is a subset; rates above refer to the full screens.
